T cruzi inh: blocks replication of Trypanosoma cruzi; T. cruzi beta-gal in NIH3T3, luminescence, 90 h; inhibition, % (test concentration not listed); 300,000 compounds, 1.4% hits;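 active = mean inhibition across valid replicates above about 55%, limit read from the data; inconclusive = mean below that limit but half or more replicates reach it; inactive = mean below it, under half of replicates reach it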;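 note: signal also drops with host cell toxicity which is not excluded here; 0% = plate median of DMSO wells and 100% = zero luminescence signal; higher percent means less beta-gal luminescence so fewer parasites; stock transfer was 50 nL into about 50 µL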
Vif TR-FRET: HIV-1 Vif–A3G interaction blockers – biochemical, TR-FRET, GST-Vif 1-94, biotin-A3G peptide, dose response retest, primary screen (AID 1117319); TR-FRET GST-Vif / biotin-A3G peptide binding; higher % means a stronger effect; test concentration not given here; strong numbers were not always called active; one-dose inhibition, %; IC50 in µM for titrated hits; 260,000 compounds, 0.57% hits;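 active = above the screen mean plus three standard deviations and confirmed in dose response; inconclusive = results disagree or hit not tested in dose response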;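 note: Vif residues 1-94 fused to GST binding biotinylated APOBEC3G peptide 110-148; 0% = full assay without inhibitor and 100% = GST in place of GST-Vif; retest series ran down from 100 µM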
RanGTP-Impb inh: inhibitors of RanGTP-importin-beta interaction, primary screen, biochemical, FRET, CFP-Ran, YFP-importin-beta, homogeneous. 300,000 compounds, 1.1% hits. cell-free CFP-Ran/YFP-importin-beta FRET ratio. inhibition, % (test concentration not listed);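 active = most replicates above 15%; inconclusive = exactly half above 15%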;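 note: 0% = DMSO wells and 100% = Ran loaded with GDP instead of GTP; wells of about 40 µL received 100 nL stock; the first replicate is given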
MLL AF4-AF9 inh: blocks AF4 peptide binding to human AF9; AlphaScreen, biotin-AF4 peptide binding to FLAG-AF9; inhibition, % at 10 µM; 350,000 compounds, 0.47% hits; AID 651704;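 active = every replicate reaching a set inhibition limit, whatever the replicate mean, cut at about 25% in these data; inconclusive = mean inhibition reaches that limit but some replicates miss it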;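 note: 0% = plate neutral control median and 100% = total signal loss; the record names both 10 and 1 µM as test concentration; the first replicate is given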
Calb FLC: affects C. albicans growth with fluconazole | C. albicans CaCi-2 (fluconazole-resistant clinical isolate) + fluconazole, Alamar Blue growth, 48 h | growth inhibition, % (no concentration beside the values) | 300,000 compounds, 0.57% hits | AID 1979;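 active = most replicates above 75%; inconclusive = exactly half above 75%; inactive = most below 75%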;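 note: all wells also contain fluconazole at 8 µg/ml as a sub-toxic cotreatment; 0% = median of DMSO wells and 100% = median of geldanamycin control wells; wells of about 8 µL received 7.5 nL stock; the first replicate is given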
Beta apoptosis: beta cell apoptosis inhibition; INS-1E cytokine-induced death, ATP luminescence, 48 h; percent of positive-control rescue, neutral wells zero; protection from apoptosis, % (no concentration beside the values); 300,000 compounds, 0.8% hits;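 active = all replicates at 75% or more, or half of them and the mean; inconclusive = half reach 75% but not the mean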;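 note: 0% = cytokine-treated negative control wells and 100% = positive control rescue; higher means more ATP so stronger rescue from cytokine killing; wells of about 40 µL received 100 nL stock; the first replicate is given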
LANA-H2B inh: blocks KSHV LANA binding to histone H2A/H2B; 320,000 compounds, 0.6% hits; inhibition, % (no concentration beside the values); cell-free LANA-H2A/H2B peptide, fluorescence polarization; Q9QR71; in the data active = inhibition mostly above about 10%, no sharp cut-off; inactive = mostly below about 6.7%;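 note: stock transfer was 7.5 nL into about 10 µL; 0% = median of vehicle wells and 100% = median of positive control wells; one replicate is shown; the record names a cut of 25% in any replicate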
Target sequence (Q9QR71 whole entry, looked up): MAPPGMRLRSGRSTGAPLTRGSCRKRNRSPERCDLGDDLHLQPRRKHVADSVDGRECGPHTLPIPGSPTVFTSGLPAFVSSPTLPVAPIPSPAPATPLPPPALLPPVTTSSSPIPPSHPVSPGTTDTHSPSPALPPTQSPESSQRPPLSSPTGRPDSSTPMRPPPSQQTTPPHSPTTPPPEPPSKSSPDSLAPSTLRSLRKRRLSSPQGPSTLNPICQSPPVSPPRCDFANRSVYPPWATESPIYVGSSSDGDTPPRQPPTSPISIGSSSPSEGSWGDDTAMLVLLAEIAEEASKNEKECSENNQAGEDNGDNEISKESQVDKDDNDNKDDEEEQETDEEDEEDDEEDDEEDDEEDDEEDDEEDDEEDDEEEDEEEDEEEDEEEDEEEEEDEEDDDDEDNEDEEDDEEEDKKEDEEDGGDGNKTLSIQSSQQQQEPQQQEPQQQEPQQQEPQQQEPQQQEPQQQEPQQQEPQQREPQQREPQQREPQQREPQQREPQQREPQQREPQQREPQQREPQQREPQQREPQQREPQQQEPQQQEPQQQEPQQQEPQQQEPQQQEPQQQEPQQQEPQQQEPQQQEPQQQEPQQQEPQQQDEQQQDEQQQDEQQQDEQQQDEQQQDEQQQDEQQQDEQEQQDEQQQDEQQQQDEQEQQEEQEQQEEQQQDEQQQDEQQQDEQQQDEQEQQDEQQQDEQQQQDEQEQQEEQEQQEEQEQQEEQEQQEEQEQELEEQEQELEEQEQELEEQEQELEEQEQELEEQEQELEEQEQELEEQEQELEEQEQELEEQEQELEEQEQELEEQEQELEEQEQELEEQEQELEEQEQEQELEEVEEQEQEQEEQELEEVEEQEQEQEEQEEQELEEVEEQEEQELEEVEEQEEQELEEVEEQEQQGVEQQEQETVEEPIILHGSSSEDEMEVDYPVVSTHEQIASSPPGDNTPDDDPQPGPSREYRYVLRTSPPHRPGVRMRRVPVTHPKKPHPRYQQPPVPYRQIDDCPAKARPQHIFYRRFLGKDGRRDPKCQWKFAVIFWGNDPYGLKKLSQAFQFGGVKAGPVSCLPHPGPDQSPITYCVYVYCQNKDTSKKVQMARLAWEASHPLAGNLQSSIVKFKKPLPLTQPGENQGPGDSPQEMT
A1 inh: inhibitors of the anti-apoptotic protein A1, read as caspase activation; MEF A1-2A-BIM cells, Caspase-Glo 3/7 luminescence, 3 h; percent of clofoctol response, vehicle zero; caspase activation, % (no concentration beside the values); 330,000 compounds, 0.066% hits;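 active = over half of replicate activation scores above 10%, or exactly half above 10 with the replicate mean above 10; inconclusive = replicate mean below 10 yet half the replicates above 10; inactive = over half of replicates below 10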;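 note: wells of about 30 µL received 50 nL stock; many hits fall short of the cut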
* = called active by the depositor; u = inconclusive; x = not tested or not shown. Hits appear at their usual frequency; overall some 4.3% were active at least once.

Structure	T cruzi inh	Vif TR-FRET	RanGTP-Impb inh	MLL AF4-AF9 inh	Calb FLC	Beta apoptosis	LANA-H2B inh	A1 inh
CCC1CCc2sc(C(=O)N(C)CC(=O)Nc3ccc(OC)cc3)cc2C1 (stereo not given)	45	1%	0.9	-4.5	-2	3	x	-0.6
CC(C)CN(C(=O)COC(=O)c1c2c(nc3ccccc13)CCC2)c1c(N)n(Cc2ccccc2)c(=O)[nH]c1=O	5	3%	-2.2	1.9	11	x	0.7	0.1
OCCNCCCCCOc1ccc(F)cc1	5	3%	-1.3	x	-13	-1	-3.9	0.6
Clc1ccc(-c2nnc(NCCN3CCCC3)c3ccccc23)cc1	50	4%	-17	11	1	1	-0.4	1.4
CCCC(=O)c1c(NC)cc(C)oc1=O	-2	-3%	-2.7	x	-5	-1	0.4	-2.1
COCCCNCC(=O)c1c(N)n(Cc2ccccc2)c(=O)n(C)c1=O	3	7%	4.7	x	-5	x	-2.3	0.6
O=C(NCC(c1ccco1)N1CCc2ccccc21)c1cccc([N+](=O)[O-])c1 (stereo not given)	0	4%	-2.8	8.6	-6	4	-2.0	1.2
CCOC(=O)C1=C(O)C(=O)N(Cc2ccc(C(C)(C)C)cc2)CC1	15	17%	2.1	0.2	-7	-14	3.4	0.4
COc1ccc2c(COC(=O)c3cccc(S(=O)(=O)NCC(C)C)c3)cc(=O)oc2c1	5	-3%	3.6	-1.8	4	-5	3.9	0.1
CSc1ccccc1OCc1cc(C(=O)N2CCNC(=O)C2)no1	-14	5%	-0.7	19	-6	x	-10	0.0
CC(=O)Nc1ccc2nc(CN3CCC(CO)(CCc4ccccc4)CC3)ccc2c1	-2	15%	5.2	-1.4	2	5	2.4	0.7
COC(=O)CCN(C(=O)c1ccc([N+](=O)[O-])cc1)c1ccccn1	-6	x	7.8	x	8	2	-0.9	0.9
CC(CN1C(C)CCCC1C)OC(=O)c1ccc(Cl)cc1Cl (stereo not given)	10	x	0.8	-0.9	-12	-7	-3.4	0.9
CN(C)CCCN(C(=O)c1cccs1)c1nc2cc3c(cc2s1)OCO3	67*	-1%	-1.2	3.7	10	-7	3.8	0.9
Cc1ccc(NC(=O)Cn2c(-c3ccc(F)cc3)cnc2SCC(=O)Nc2c(C)cccc2C)cc1	-26	-9%	1.6	x	-14	1	-1.7	0.0
O=C1c2sc3nc4c(c(=O)n3c2C(=O)N1c1ccccc1)CCC4	-13	-2%	2.5	x	-5	1	-3.1	1.0
CC(=O)Nc1cccc(-c2csc(Nc3ncccn3)n2)c1	-13	4%	0.2	-1.6	-6	x	x	x
Cc1ccc(NS(=O)(=O)c2cc(C(=O)N3CCCC3)ccc2C)cc1C	9	x	2.3	-3.0	-17	-6	-1.4	0.3
Cc1ccc(NC(=O)c2cc(-c3cccs3)nc3ccccc23)nc1	-6	9%	-0.2	-1.2	0	4	1.5	0.1
O=C(c1cccc(-c2ccco2)c1)N1CCCC(N2CCN(c3ccc(F)cc3)CC2)C1 (stereo not given)	4	x	0.7	17	3	-1	-6.7	0.3
Cc1ccc(-n2ncc(N(C)C)c(Cl)c2=O)cc1	-19	-1%	1.9	x	-5	-2	-1.7	-0.2
O=C(c1ccco1)N1N=C(c2ccc(Br)cc2)CC1c1ccco1 (stereo not given)	x	-11%	x	1.8	x	u	-0.2	2.1
O=[N+]([O-])c1ccc(S(=O)(=O)Nc2ccc(S(=O)(=O)N3CCCC3)cc2)cc1	-6	x	4.2	0.2	27	2	1.2	0.5
CC[C@@]12C(=O)N(c3cccc(Br)c3)C(=O)N1[C@H](c1cccc(C)c1)[C@@H]1C(=O)N(Cc3ccccc3)C(=O)[C@@H]12	11	x	-1.1	x	-8	-2	0.6	1.5
CSc1nnc(C(C)(C)C)c(=O)n1/N=C/c1ccccc1O	-5	-4%	1.8	-13	-2	-5	-3.3	1.8
C/C(=N\NC(=O)C1CCCC1)c1ccc(C(C)C)cc1	9	3%	0.4	0.8	-2	-4	-1.2	-0.5
Cc1nn(C)c(-c2n[nH]c(=S)n2Cc2ccco2)c1Cl	-8	x	-4.4	-21	-1	-10	-1.6	-0.2
CS(=O)(=O)N(CC(=O)NCc1cccnc1)Cc1ccc(Cl)cc1	7	26%	0.4	x	12	-8	7.1	0.8
Cc1ccccc1NC(=O)c1cc(S(=O)(=O)N2CCOCC2)ccc1F	1	10%	6.5	x	u	-1	0.6	0.1
COc1ccc(-c2noc(CNC(=O)c3ccc4c(c3)OCO4)n2)cc1OC	-3	x	-2.2	0.8	7	0	3.5	-1.0
CS(=O)(=O)c1ccc(Cl)c(NC(=O)C2CCN(S(=O)(=O)c3cccs3)CC2)c1	x	-10%	x	-1.5	x	-1	x	-0.2
COc1ccc(C(=O)NCCNc2nc3cc(C)c(C)cc3cc2C)cc1	8	x	6.2	0.7	-9	0	0.6	0.2
O=C(c1ccc(Cl)cc1)N1CCC(=O)N(C(CO)Cc2ccccc2)CC1 (stereo not given)	-13	x	-3.4	-1.1	35	-4	-0.3	-0.3
Cc1ccc(S(=O)(=O)NCCCC(=O)C=[N+]=[N-])cc1	x	3%	x	x	x	-3	2.2	-0.6
COc1ccc(CN(CCC(c2ccc(F)cc2)C2CCOC(C)(C)C2)C(=O)c2ccco2)cc1 (stereo not given)	26	x	-2.7	11	6	-4	-11	0.1
COC(=O)C(Cc1ccccc1)NC(=O)CNS(=O)(=O)c1ccc(Br)cc1 (stereo not given)	-11	0%	-2.0	-1.0	41	-7	1.0	0.2
COc1cccc(NC(=O)COC(=O)c2c(F)cccc2F)c1	-13	-2%	4.9	x	-6	-1	-4.9	0.2
COc1cc(CNCCCN2CCOCC2)ccc1OCC(=O)Nc1cccc(C(F)(F)F)c1	49	3%	1.8	x	-6	-3	0.1	0.0
CCN1C(=O)c2cccc3c(S(=O)(=O)N4CCC(C)CC4)ccc1c23	x	-4%	x	-16	x	-9	-3.6	0.9
Cc1cccc(NC(=O)CCN2C(=O)C3C4CCC(C4)C3C2=O)c1C (stereo not given)	-2	-4%	-4.8	x	-1	2	-1.1	2.3
CS(=O)(=O)N(CC(=O)NCCSc1ccccn1)c1ccc(F)cc1	-10	x	2.9	-1.7	1	-2	0.7	-0.5
Cc1cc(C(=O)NCc2ccccc2F)cs1	-10	20%	-3.5	x	-2	-3	-4.3	-0.6
COc1ccc(CNC(=O)CSc2ncn[nH]2)cc1	-4	3%	0.2	x	-7	-3	-2.7	-0.4
Cc1nn(Cc2ccccc2Cl)c(C)c1NC(=O)c1ccn(C)n1	-12	8%	-5.5	x	-29	-4	2.1	-0.6
CCOC(=O)C1Cc2c([nH]c3ccccc23)C(C)N1 (stereo not given)	-8	10%	3.2	4.6	-5	-7	-2.5	0.3
Nc1c(C(=O)N2CCCCCC2)oc2ccccc12	-4	7%	-3.9	2.4	-3	0	5.4	0.1
COc1ccc(OC)c(/C=N/NC(=O)CNC(=O)c2ccc(S(=O)(=O)N3CCOCC3)cc2)c1	0	22%	0.1	5.8	14	-7	0.0	1.0
C/C(=N\NC(=O)COc1ccc([N+](=O)[O-])cc1)c1ccco1	x	-5%	x	-5.8	x	3	-1.5	1.0
Cc1ccc(CN2[C@@H](Cc3ccccc3)C(=O)CS2(=O)=O)cc1	x	x	x	-6.8	x	-6	0.6	-1.5
CCCCn1nc2cc(C(=O)NCc3ccc(OC(F)(F)F)cc3)ccc2c1OC	9	0%	1.7	x	4	3	-7.1	0.6
CCCN1CCN(C(=O)CCn2c(=O)c3cccn3c3cccnc32)CC1	-3	x	2.0	-0.7	7	2	1.8	-0.1
Cc1sc(NC(=O)c2cccs2)nc1-c1ccccc1	8	0%	0.6	x	13	-1	-2.0	0.6
CC(=O)Nc1ccc(-c2csc(NC(=O)CC(NC(C)=O)c3ccccc3)n2)cc1 (stereo not given)	-12	-2%	0.3	0.6	-1	8	-17	1.2
O=C(O)c1ccccc1C(=O)c1ccc(N2CCOCC2)c([N+](=O)[O-])c1	-11	-3%	-6.1	-0.4	2	-4	-1.7	0.3
O=C(c1cccc(Oc2ccc([N+](=O)[O-])cc2)c1)N1CCOCC1	6	x	3.4	0.7	-2	5	7.6	0.3
COc1ccc2cc3c(N)nn(C(=O)c4cccc(F)c4)c3nc2c1	4	5%	u	5.9	6	-20	-4.8	0.2
COc1ccc(-c2cc(C(=O)NCc3ccccc3)no2)cc1OC	21	0%	-1.8	x	-7	0	4.5	-0.3
CN=C(C)/C(C(=O)OC)=C(/O)c1c(F)cccc1F	0	-1%	7.9	-5.1	-3	-8	1.1	0.6
O=C(NCC(=O)N(Cc1cccs1)C(C(=O)NC1CCCC1)c1ccncc1)c1ccco1 (stereo not given)	-10	6%	-0.5	x	9	-15	1.5	-0.2
CCN(CC(=O)Nc1ccc(OC)cc1)C(=O)c1ccc2ccccc2c1	x	-8%	x	-0.1	x	5	-2.1	0.3

Later entries.
Structure	T cruzi inh	Vif TR-FRET	RanGTP-Impb inh	MLL AF4-AF9 inh	Calb FLC	Beta apoptosis	LANA-H2B inh	A1 inh
CC(=O)Nc1ccc(NC(=O)CSc2nnc(-c3cccs3)n2C)cc1	-3	x	3.8	-3.2	4	1	-1.9	-0.1
CN(C)c1ccc(CN2CCC(C(N)=O)CC2)cc1	0	3%	-2.4	1.4	4	-6	2.3	-0.3
O=C(CNC(=O)c1ccc(Br)o1)Nc1ccncc1	-10	2%	0.7	-1.7	2	3	x	-0.7
COc1cc(/C=C/C(=O)OCc2csc(CC(=O)Nc3ccc(C)cc3)n2)ccc1OCC#N	x	-4%	x	-12	x	-2	-5.0	-0.3
O=C(O)COCC(=O)Nc1ccc(-n2cnnn2)cc1	-10	6%	5.1	1.0	-1	-5	0.6	-0.1
O=C(CN1C(=O)c2ccccc2S1(=O)=O)NC1CCCCC1	-4	x	0.1	0.0	7	1	-3.9	0.0
O=C1CCN(Cc2ccc([N+](=O)[O-])cc2)CCN1[C@H](CO)Cc1ccccc1	-4	x	-1.6	-2.7	-6	5	16	-0.4
CCOc1ccc(-c2nc(C#N)c(N3CCN(C)CC3)o2)cc1	48	0%	2.5	-15	-10	1	10	0.7
CC(C)(C)c1ccc(C(=O)N2CCC(=O)N(C(COCc3ccccc3)Cc3ccccc3)CC2)cc1 (stereo not given)	9	4%	0.3	x	8	-2	-0.9	-0.4
CCOc1ccc2nc(N=NC3=C(O)CC(C)(C)CC3=O)sc2c1	-13	u	-3.8	3.9	89*	0	-1.5	-0.2
CN(c1cccc(NC(=O)Cc2ccccc2)c1)S(C)(=O)=O	-1	-2%	-2.3	x	28	x	-2.4	0.7
N/C(=N\OC(=O)Nc1ccccc1)c1ncc(C(F)(F)F)cc1Cl	6	0%	1.5	x	1	0	1.0	-3.3
CN(C)c1[nH]c(=O)c(C#N)c2c1CCN2Cc1ccccc1	-12	0%	-3.7	x	3	7	2.5	0.1
O=C(c1ccc(Cl)c(S(=O)(=O)N2CCCCCC2)c1)N1CCCC(C(F)(F)F)C1 (stereo not given)	-8	-3%	4.1	0.5	7	2	-0.4	0.9
O=C(O)CN1C(=O)/C(=C\c2cc(Br)ccc2OCc2ccccc2F)SC1=S	3	-3%	-1.4	1.8	-3	-5	-4.8	1.0

Bioassay records from PubChem BioAssay.
